Bioassay records deposited in PubChem by National Center for Advancing Translational Sciences (NCATS).
AmpC inh no det: blocks E. coli AmpC beta-lactamase in absence of detergent. P00811. AmpC nitrocefin hydrolysis, absorbance 480 nm, no detergent; potencies from a single point are estimates. Potency, µM (series often up to 28.7 µM), for inactives: top-dose activity change, negative = inhibition. 1.8% of 71,000 active. AID 585; active = falling curve, for most hits resting on a single point; inconclusive = weak or doubtful change; inactive = flat or rising curve; note: % of control where 0% means no effect; about half of the hits show no inhibition at the top dose; a quarter of the inactives give rising signals
Target sequence (P00811 whole entry, looked up): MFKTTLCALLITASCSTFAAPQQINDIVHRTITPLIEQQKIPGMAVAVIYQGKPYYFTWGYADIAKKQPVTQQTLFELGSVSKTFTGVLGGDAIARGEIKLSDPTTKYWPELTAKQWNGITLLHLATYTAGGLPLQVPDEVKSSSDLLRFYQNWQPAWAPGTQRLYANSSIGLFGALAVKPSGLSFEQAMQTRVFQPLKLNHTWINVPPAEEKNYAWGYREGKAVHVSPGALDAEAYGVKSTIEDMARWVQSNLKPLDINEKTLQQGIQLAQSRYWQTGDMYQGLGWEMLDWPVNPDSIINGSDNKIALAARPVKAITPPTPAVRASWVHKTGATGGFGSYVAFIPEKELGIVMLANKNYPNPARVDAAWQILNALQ
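Enzyme, pH 7.0 phosphate. Compound titrations were pre-incubated with AmpC for 15 min at room temperature before nitrocefin (stock 800 uM) addition; product formation was recorded at 480 nm every 20 s for 4 min.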
An asterisk follows results filed as active; & = joins results of further samples; [ ] = another dose, or the depositor's remark. Potency is the fitted concentration of half-maximal effect. Not all compounds are listed; rates above refer to the full screens.

Compound	AmpC inh no det
Cn1c(N2CCCCC2)nc2c1c(=O)n(Cc1cccc(Br)c1)c(=O)n2C	35%
COc1ccc(C(=O)N2CCCC2)cc1	2%
CC(=O)Nc1cccc(Oc2cc(C#N)c(C#N)cc2N2CCCCCC2)c1	48%
Cc1ccc(N2CCN(S(=O)(=O)c3ccc(F)c(C)c3)CC2)c(C)c1	11%
CSc1snc(SCC(N)=O)c1C#N	3%
CCCC(=O)Nc1cc(OC)c(OC)cc1C(=O)O	-9%
Cc1ccc(-n2c(C)cc(C(=O)COC(=O)c3c(C)noc3C)c2C)cc1	19%
O=C(O)[C@H]([C@H]1NCCS1)N1Cc2ccccc2C1	7%[5.75 µM]
COc1cccc2cc(-c3cn4cccc(C)c4n3)c(=O)oc12	-8%
O=C(O)CCc1ccc(-c2cccs2)n1CC1CCCO1 (stereo unspecified)	7%
CSc1c[n+]2c(n1C)CCC2	-3%
CCc1ccccc1N1CCN(S(=O)(=O)c2ccc(F)c(C)c2)CC1	-4%
Cc1nc(-c2ccc(NC(=O)c3cccs3)cc2)cs1	-19%
Cc1cc(/C(=N/O)C(C)(C)NO)ccc1Cl	10%
O=C(CN(c1ccc(F)cc1)S(=O)(=O)c1ccc2c(c1)OCCO2)N1CCOCC1	42%
O=C(CSc1nc2c(c(=O)[nH]1)CCC2)Nc1cccc(Cl)c1	-10%
O=C(NCCCN1CCN(c2cccc(Cl)c2)CC1)c1nc(-c2ccncc2)no1	92%
CCOc1cccc(N2C(=O)CC(N3CCC(C(N)=O)(N4CCCCC4)CC3)C2=O)c1 (stereo unspecified)	14%
CCC(=O)OC1(c2cccc(C)c2)CC(C)N(C)CC1C (stereo unspecified)	1%
CC(C)(C)NC(=O)c1ccccc1-c1nc(-c2ccccc2Cl)no1	30%
CC(C)NC(=O)Cn1nnc(-c2cccc(NC(=O)c3ccccc3F)c2)n1	-7%
CCOC(=O)C1CCN(c2c(N3CCCCCC3)c(=O)c2=O)CC1	-4%
CN[C@H]1[C@H](C)O[C@@H](O[C@@H]2C/C=C(/C)C/C(C)=C\C=C/CC[C@@H](C)CNC(=O)/C=C\C=C/[C@H]2C)C[C@@H]1O	17%[5.75 µM]
c1ccc(-c2cnc(-c3cccnc3)o2)cc1	16%

Random excerpt: two records from the list.
Compound	AmpC inh no det
CCOc1cccc(N2C(=O)CC(N3CCC(C(N)=O)(N4CCCCC4)CC3)C2=O)c1 (stereo unspecified)	14%
CCOC(=O)C1CCN(c2c(N3CCCCCC3)c(=O)c2=O)CC1	-4%

Other records.
Compound	AmpC inh no det
O=C1C2CCC(C(O)C2)N1Cc1ccccc1 (stereo unspecified)	15%
COc1ccc(NC(=O)c2ccco2)cc1NC(=O)c1cccnc1	1%
N#Cc1cc2c(=O)n3ccccc3nc2n(CCCn2ccnc2)c1=N	-10%
Cn1cccc1C(=O)N1CCC2(CCCN(c3ccc(-c4ccccc4)cc3)C2)CC1	109%
CC(C(=O)N(C1CC1)C1(C(=O)Nc2ccccc2)CCCC1)N1C(=O)c2ccccc2C1=O (stereo unspecified)	67%
COc1ccc(Nc2oc(COc3cccc(C)c3)nc2C#N)cc1	-11%
CC(C)CNC(=O)c1cccc(NC(=O)C2CCCO2)c1 (stereo unspecified)	-3%
COc1ccc(Nc2cc(C(=O)NCCCN3CCN(C)CC3)c3ccccc3n2)cc1OC	66%
COC(=O)CN(c1ccccc1OC)S(=O)(=O)c1ccccc1	2%
CCCCOC(=O)CSc1nc2c(cc1C#N)C(=O)CC(C)(C)C2	16%
COCc1c(C(=O)OCC(=O)N2c3ccccc3CC2C)oc2ccccc12 (stereo unspecified)	22%
Cc1ccccc1NC(=O)c1nc[nH]c1C(=O)NCc1ccccc1	39%
NS(=O)(=O)c1ccc(NC(=O)Nc2ccccc2F)cc1	-6%[5.75 µM]
CS(=O)(=O)N1CCc2cc(S(=O)(=O)N3CCN(Cc4ccc5c(c4)OCO5)CC3)ccc21	4%
Cc1ccc(C(=O)Nc2ncc3c(n2)CC(c2ccco2)CC3=O)cc1 (stereo unspecified)	-3%
COc1ccccc1N(CC(=O)Nc1ccccc1C(=O)NC(C)C)S(C)(=O)=O	36%
CCOC(=O)c1ccccc1NC(=O)CSc1nccn1C	5%
Cc1cc(Nc2ccccc2F)n2ncnc2n1	-7%
O=C(CSc1ncnc2ccccc12)NCc1ccco1	3%
Cc1onc(-c2c(Cl)cccc2Cl)c1C(=O)N1CCc2ccccc21	16%
CCCCCCCCCCCCCCCCOC[C@@H](COCC(F)(F)F)OP(=O)(O)OCO	169%
Cc1nn(-c2ccccc2)c2sc(C(=O)N(CC(=O)NC3CCCC3)Cc3ccco3)cc12	65%
CCN1C(=O)C(CC(=O)NC2CCCCC2)N(CC)C1=O (stereo unspecified)	2%
O=C(CCSc1nc(-c2ccc3c(c2)OCO3)cc(C(F)(F)F)n1)NCc1ccco1	-8%
COc1ccc(OC)c(-c2nnc(SCC(=O)N3CCOCC3)o2)c1	13%
COc1ccc(NC(=O)C2c3cc(OC)c(OC)cc3C(=O)N(C)C2c2cccnc2)cc1OC (stereo unspecified)	8%
S=C=Nc1cccc(C2(N3CCCCC3)CCCCC2)c1	27%&-13%
Cc1csc(NC(=O)Nc2ccc(Cl)cc2)n1	0%
O=C1CCC(=O)N1CNc1cccnc1	1%
Cc1cc(C)nc(/N=C/c2c(O)n(C)c(=O)n(C)c2=O)n1	-19%
CCc1ccc(N2CC(C(=O)Nc3nccs3)CC2=O)cc1 (stereo unspecified)	12%
Cn1c(SCC(=O)c2ccc3c(c2)OCO3)nnc1C1COc2ccccc2O1 (stereo unspecified)	15%
Cc1cc(Nc2nc3c(c(=O)n(C)c(=O)n3C)n2C)n(-c2ccc(Cl)cc2)n1	16%
c1ccc(N2CCN(c3nc4ccccc4n4nnnc34)CC2)cc1	-7%
Cc1ccc(NC(=O)C2C3C=CC4(CN(Cc5cccnc5)C(=O)C24)O3)cc1 (stereo unspecified)	-5%
COc1cccc(Nc2ncc3nc(-c4ccccc4)c(=O)n(Cc4cccs4)c3n2)c1	-10%

(list continues)
smiles,AmpC inh no det
Cc1cccc(CNc2nc(-c3cccc(NS(C)(=O)=O)c3)nc3ccccc23)c1,-4%
CCOC(=O)c1c(N)sc2c(O)c(Br)ccc12,-10%
CCOC(=O)CNc1c(-c2ccc(F)cc2)nc2cnccn12,5%
CCNC(=O)CC1C(=O)N(c2ccc(OC)cc2)C(=O)N1Cc1ccc(OC)cc1 (stereo unspecified),9%
Cc1nnc(NC(=O)CSc2nnc(CCc3nc4ccccc4[nH]3)n2C)s1,0%
CCOc1ccc(C(=O)NCC2CCCO2)cc1 (stereo unspecified),9%
O=C(CSc1nc(O)c(C2CCCCC2)c(=O)[nH]1)NCC1CCCO1 (stereo unspecified),-4%
CCOC(=O)N1CCN(C(=O)CNC(=O)Cc2ccc(Cl)cc2)CC1,11%
Cn1cnnc1-c1cccc(NS(=O)(=O)c2ccc(N3CCCC3=O)cc2)c1,-3%
N#CCCSc1ccccc1NC(=O)c1ccc(S(=O)(=O)N2CCCC2)cc1,21%
CC(C)c1nnc(NC(=O)c2ccc(N3C(=O)CCC3=O)cc2)s1,23%
COc1ccc(C2(C(=O)N3CCOCC3)CCOCC2)cc1OC,-10%
CCOC(=O)c1cccc(NC(=O)C2CCCN(S(=O)(=O)c3c(C)n[nH]c3C)C2)c1 (stereo unspecified),13%
COc1cccc(C2CC(c3ccccc3Cl)n3nnnc3N2)c1 (stereo unspecified),28%
Cn1c(NC(=O)c2cccnc2)nc2ccccc21,4%
Cc1ccc(-c2nnc3n2N=C(c2ccccc2Br)CS3)cc1,14%
CCn1c(SCC(=O)Nc2nc(C)cs2)nnc1-c1cccnc1,-1%
CCOC(=O)NC(Nc1nnc(C)s1)(C(=O)OCC)C(F)(F)F (stereo unspecified),3%
COc1cc(C(=O)NCCC2=CCCCC2)cc(OC)c1OC,39%
CCc1nc2ccccc2n1CCC(C)C,9%
Cc1ccccc1Cn1c(CN2CCN(C(=O)c3ccco3)CC2)nc2c1c(=O)n(C)c(=O)n2C,-3%
C=CCc1cc(C)ccc1OCC(O)CN1CCN(c2ccccc2)CC1 (stereo unspecified),40%
COC(=O)c1c(C)[nH]c(C(=O)C(Cc2ccccc2)N(C)C)c1C (stereo unspecified),9%
CCCSc1nsc(SCCC)c1C(N)=O,-13%
CN1CCN(c2ncc3ncc(=O)n(-c4ccccc4)c3n2)CC1,7%
CCOC(=O)C1C(=O)C(C(=O)OCC)C(c2cccnc2)NC1c1cccnc1 (stereo unspecified),4%
COc1ccc(C(=O)NCc2ccccc2OC)cc1,-7%
COc1ccc(-n2nnc3c(=O)n(CC(=O)OCc4ccccc4)cnc32)cc1,-14%
Cc1ccc(-c2cc(C(=O)NC3=NCCS3)c3cc(Br)ccc3n2)o1,26%
COC(=O)NCc1ccc(S(=O)(=O)N2CCOCC2)cc1,-1%

For convenience, some entries already given.
smiles,AmpC inh no det
COc1ccc(C2(C(=O)N3CCOCC3)CCOCC2)cc1OC,-10%
CCOC(=O)c1cccc(NC(=O)C2CCCN(S(=O)(=O)c3c(C)n[nH]c3C)C2)c1 (stereo unspecified),13%
COc1cccc(C2CC(c3ccccc3Cl)n3nnnc3N2)c1 (stereo unspecified),28%
Cn1c(NC(=O)c2cccnc2)nc2ccccc21,4%
Cc1ccc(-c2nnc3n2N=C(c2ccccc2Br)CS3)cc1,14%
CCn1c(SCC(=O)Nc2nc(C)cs2)nnc1-c1cccnc1,-1%
CCOC(=O)NC(Nc1nnc(C)s1)(C(=O)OCC)C(F)(F)F (stereo unspecified),3%
COc1cc(C(=O)NCCC2=CCCCC2)cc(OC)c1OC,39%
CCc1nc2ccccc2n1CCC(C)C,9%
Cc1ccccc1Cn1c(CN2CCN(C(=O)c3ccco3)CC2)nc2c1c(=O)n(C)c(=O)n2C,-3%
C=CCc1cc(C)ccc1OCC(O)CN1CCN(c2ccccc2)CC1 (stereo unspecified),40%
COC(=O)c1c(C)[nH]c(C(=O)C(Cc2ccccc2)N(C)C)c1C (stereo unspecified),9%
CCCSc1nsc(SCCC)c1C(N)=O,-13%
CN1CCN(c2ncc3ncc(=O)n(-c4ccccc4)c3n2)CC1,7%
CCOC(=O)C1C(=O)C(C(=O)OCC)C(c2cccnc2)NC1c1cccnc1 (stereo unspecified),4%
COc1ccc(C(=O)NCc2ccccc2OC)cc1,-7%

(next part)
smiles,AmpC inh no det
CCOCCOC(=O)CCSc1n[nH]c(=O)[nH]c1=O,-1%
COC(=O)COc1ccc(S(=O)(=O)NC2CCCCCC2)cc1,18%
COc1ccc(OC)c2sc(NC(=O)C3CC3)nc12,9%
CN(CCOc1ccc(C[C@H](Nc2ccccc2C(=O)c2ccccc2)C(=O)O)cc1)c1ccccn1,107%&75%
CC1=C(/C=C/C(C)=C/C=C/C(C)=C\C=O)C(C)(C)CCC1,35%
CNC(=O)CN1C(=O)C2C3C=CC(C3)C2C1=O (stereo unspecified),-14%
O=Cc1c(Cl)cccc1Cl,-2%
CCOC(=O)C1C2C=CC3(CN(Cc4cccs4)C(=O)C13)O2 (stereo unspecified),-3%
CSCC[C@H](NC(=O)Nc1cccc(C(F)(F)F)c1)C(=O)O,-3%
Cc1ccc(S(=O)(=O)CCc2nnc(NC(=O)c3ccccn3)s2)cc1,5%
O=C(OCCCC(=O)N1CCOCC1)c1ccccc1,6%
COc1ccc(C(=O)COc2ccc(NC(C)=O)cc2)cc1,-1%
CN(C)C=Nc1nonc1-c1ncn[nH]1,3%
CCOCCCNC(=O)C(c1ccc(C)cc1)N(Cc1ccc2c(c1)OCO2)C(=O)CNC(C)=O (stereo unspecified),122%
Cc1cccc(C(=O)Nc2ncc(CN3CCOCC3)s2)c1,14%
Clc1ccc(-c2nnc(-c3ccccc3Cl)o2)cc1,-3%
CC(C(N)=O)N1CC(c2ccccc2)CC1=O (stereo unspecified),-5%
COC(=O)CSc1nnc(-c2ccccc2O)n1-c1ccc(C)cc1,26%
Cc1ccc(S(=O)(=O)Nc2nc3ccccc3nc2NCc2ccco2)cc1,-11%
COc1ccc(S(=O)(=O)N(CCc2ccccc2)CC(=O)O)cc1OC,-5%
CCCOc1ccc(N2C(=O)CC(N3CCC(C(=O)OCC)CC3)C2=O)cc1 (stereo unspecified),80%
O=C(O)/C=C\C(=O)Nc1cccc2c1-c1ccccc1C2=O,-2%[5.75 µM]
Cc1ccccc1-c1nc(-c2cccnc2)no1,10%
COc1ccc(OCc2nc(N)nc(Nc3cccc(C)c3C)n2)cc1,3%
O=C1CC(c2ccccc2)n2nc(NC(=O)c3cccnc3)nc2N1 (stereo unspecified),2%
O=C1c2ccccc2C(=O)N1C[C@]1(C(=O)O)NCCS1(=O)=O,4%[5.75 µM]
COc1cc(-c2nc(-c3ccc(NC(=O)c4ccc5c(c4)OCO5)cc3)no2)cc(OC)c1OC,61%
N#Cc1c(NC(=O)c2ccc(Br)o2)n(-c2ccccc2)c2nc3ccccc3nc12,-4%
Cc1cccc(NC(=O)CSc2nnc(-c3ccncc3)n2C)c1,-10%
Cc1ccc(NCCNc2ccc(C)cc2)cc1,-8%
COc1ccccc1NC(=O)CCSc1nnnn1C,-1%
O=C(CCn1c(=O)oc2ccccc21)N1CCN(c2ccccc2Cl)CC1,41%
Cc1cc(NC(=O)CC23CC4CC(C2)CC(CC(=O)Nc2cc(C)on2)(C4)C3)no1,28%
O=C(NCCCNC(=O)NC1CCCCC1)NC1CCCCC1,-2%
CCOc1ccc(S(=O)(=O)N(CC(=O)O)c2ccccc2)cc1,-10%
CCCC(=O)c1cc(F)c(N2CCN(C(=O)OCC)CC2)cc1C,78%
